Rango-impB inh = qHTS Assay for Inhibitors of Rango (Ran-regulated importin-beta cargo) - Importin beta complex formation. Importin subunit beta-1 (Homo sapiens), Q14974. Rango CFP/YFP FRET sensor + importin beta, 45 min. AID 540263, 2011. 0.031% of 340,000 active. Potency, µM (highest dose often 92.2 µM), for inactives: at the highest dose inhibition of complex formation; active = rising FRET ratio curve, often small or poorly fitted; inconclusive = mostly compound fluorescence or quenching in the first reads; inactive = flat curves in all reads;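 note: potency is the fitted concentration of half-maximal effect; 0% = DMSO wells and 100% = buffer wells lacking importin beta; nearly all actives have a fitted effect of over 15% in size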
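Inhibition scored from the CFP 486 nm/YFP 530 nm FRET ratio 45 min after adding 0.125 microM importin beta to 50 nM Rango biosensor preincubated 5 min with compound (room temperature, PBS with DTT, Tween-20, BSA). No-importin wells as positive control.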
GLA inh pH 4.5 = qHTS Assay for Inhibitors of Human alpha-Galactosidase at pH 4.5; purified enzyme, 4-MU-alpha-Gal fluorescence, pH 4.5; activity change, negative = inhibition, % at 105 µM; 230,000 tested, under 10 active; AID 1467, 2008; inconclusive = small, poorly fitted or top-dose-only inhibition, or a rising curve; inactive = flat fitted curve, though single readings scatter; no compound was filed as active;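 note: 0% = full activity with enzyme and -100% = basal without enzyme; dose as in the result columns while the protocol names 77 µM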
Target sequence (P06280 whole entry, looked up): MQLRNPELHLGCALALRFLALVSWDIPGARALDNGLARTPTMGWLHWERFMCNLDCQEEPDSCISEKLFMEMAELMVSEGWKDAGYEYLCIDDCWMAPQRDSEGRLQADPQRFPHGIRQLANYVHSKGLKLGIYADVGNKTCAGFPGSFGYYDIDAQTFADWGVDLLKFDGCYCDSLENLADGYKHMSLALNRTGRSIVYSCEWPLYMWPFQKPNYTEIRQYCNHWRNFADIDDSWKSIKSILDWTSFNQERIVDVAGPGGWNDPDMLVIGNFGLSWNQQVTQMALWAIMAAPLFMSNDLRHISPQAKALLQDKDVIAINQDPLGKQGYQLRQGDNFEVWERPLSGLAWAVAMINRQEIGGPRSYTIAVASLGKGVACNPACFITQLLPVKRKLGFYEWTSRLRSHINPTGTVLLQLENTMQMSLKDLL
Rango dissoc inh = qHTS Assay for Inhibitors of RanGTP induced Rango (Ran-regulated importin-beta cargo) - Importin beta complex dissociation; 0.071% of 340,000 active; Biochemical FRET Rango-importin beta, RanGTP-induced dissociation; Potency, µM (doses to about 46.1 µM), without a hit: top-dose activity change, negative = inhibition; Snurportin-1 (Homo sapiens) + GTP-binding nuclear protein Ran (Homo sapiens) + Importin …; active means falling FRET ratio curve, often poorly fitted, with flat reads before Ran was added; inconclusive means other falling curves, or compound fluorescence or quenching; inactive means flat or rising ratio curve;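 note: potency is the fitted concentration of half-maximal effect; % of control where 0% means no effect; nearly all actives have a fitted effect of over 45% in size; -100% = wells without RanGTP and RCC1; the record marks most hits as doubtful in a second field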
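Compounds sat 5 min at room temperature with 0.1 uM Rango biosensor plus 0.25 uM importin beta, then FRET pre-read. RanGTP-RCC1 (0.6 uM Ran, 2mM GTP, 0.2 uM RCC1) added for 45 min, and the CFP/YFP post-read measured blocked complex dissociation.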
miR-21 FLuc = qHTS Assay for Modulators of miRNAs and/orActivators of miR-21 | 340,000 tested, under 10 active | HeLa miR-21 FLuc reporter, luciferase, 48 h | Potency, µM (series often up to 38.3 µM), for the others: top-dose reporter change, positive = more light | AID 2288, 2010; active = well fitted rising curve with a large enough effect; inconclusive = small, poorly fitted or top-dose-only effect; inactive = no such curve, though single readings can be large or run the other way;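 note: % of control where 0% means no effect; miR-21 action dims this reporter so a rising signal means less miR-21 action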
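HeLa cells stably expressing CMV-driven firefly luciferase with a downstream miR-21 binding sequence, endogenously expressing miR-21, were treated with titrations (up to about 40uM final) for 48 hours at 37 degree Celsius. Luciferase luminescence was read after lysis.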
* hit, by the source's call; ? = inconclusive; / = not tested or not shown. This is a subset; rates above refer to the full screens.

Second line of a record: Rango-impB inh	GLA inh pH 4.5	Rango dissoc inh	miR-21 FLuc
- CCc1nnc(NC(=O)c2ccc(S(C)(=O)=O)cc2)s1
  -3.6%	2	28%	-26%
- Cc1cccc(OCc2nnc(SCC(=O)Nc3cc(C)on3)n2C)c1
  0.4%	1	8%	-4%
- O=C(c1ccc([N+](=O)[O-])s1)N1CCc2ccccc2C1
  0.7%	-8	-25%	6%
- COc1ccc(C2CC(c3ccc(F)cc3)n3nc(NC(=O)c4ccco4)nc3N2)cc1 (stereo unspecified)
  -0.2%	-5	-1%	-7%
- C=CCC[C@H](Cc1ccc(F)cc1)C(=O)OC[C@H](Cc1c[nH]c2ccccc12)NC(=O)[C@H](CC=C)CC(=O)N(CCO)Cc1ccccc1
  5.8%	/	-18%	/
- CC(=O)Nc1cccc(OCCCNS(=O)(=O)c2ccc(C#N)cc2)c1
  -0.8%	/	-7%	4%
- Cc1ccccc1NC(=O)CCN1C(=O)CSC1=O
  5.9%	-1	21%	-8%
- COc1ccc(NC(=O)CN(c2ccc([N+](=O)[O-])cc2)S(=O)(=O)c2ccccc2)cc1
  0.9%	-2	0%	19%
- O=C(OCCCOC(=O)c1ccc([N+](=O)[O-])o1)c1ccc([N+](=O)[O-])o1
  -0.1%	/	16%	/
- O=C(COc1ccccc1-c1ccccc1)N/N=C/c1ccc2ccccc2c1
  ?	6	-4%	20%
- COc1ccc(/C=C2\SC(=S)N(CCCC(=O)N3CCN(C)CC3)C2=O)cc1
  -2.7%	/	-13%	11%
- Cc1cccc(N2CCC(N3CCN(C4CCCCC4)C(CCO)C3)CC2)c1C (stereo unspecified)
  -0.4%	0	0%	-13%
- CC(C)(C)n1cc(S(=O)(=O)c2ccccc2)[nH]c1=O
  -1.1%	-3	-1%	4%
- Cc1ccc(S(=O)(=O)N(CCC(=O)N2CCOCC2)c2ccccc2)cc1
  -0.6%	/	12%	/
- CCOC(=O)c1c(C)[nH]c(C(=O)OCC(=O)Nc2cc(Cl)ccc2OC)c1C
  ?	4	-7%	-6%
- O=C(CSC1=Nc2ccccc2C2CC=NN12)Nc1ccc(F)c(F)c1F (stereo unspecified)
  0.5%	/	17%	/
- COc1cccc(C2C(C(=O)OCc3ccccc3)=C(C)Nc3ncnn32)c1OC (stereo unspecified)
  ?	1	-17%	-10%
- Cc1ccc(S(=O)(=O)N2CCOCC2)cc1C(=O)O
  3.0%	3	15%	-3%
- CCOC(=O)C1(CCOc2ccccc2)CCN(Cc2ccc(COC)o2)CC1
  1.5%	0	-7%	7%
- O=C(Nc1ccc(C(=O)N2CCN(c3ccc(F)cc3)CC2)cc1)C1=CSCCO1
  -3.1%	/	14%	-5%
- CCN(CC)S(=O)(=O)c1ccc(NC(=O)COC(=O)c2cc(S(=O)(=O)Nc3ccc(OC)cc3)ccc2O)cc1
  -3.7%	7	-19%	1%
- CN(C(=O)c1cccc([N+](=O)[O-])c1)c1ccccc1C(=O)NCc1ccccc1
  -2.2%	/	18%	0%
- N#CCCN1CCN(C2=NC(=O)/C(=C\c3cccs3)S2)CC1
  4.0%	-15	4%	-23%
- Cc1cc([N+](=O)[O-])nn1CC(=O)c1ccccc1
  -1.3%	4	-5%	0%
- CC1=C(C(=O)Nc2ccccc2C)C(c2ccc(C)o2)NC(=S)N1 (stereo unspecified)
  -3.9%	3	4%	-3%
- CC1CCCCN1C(=O)c1ccc(NC(=O)c2ccccc2Cl)cc1 (stereo unspecified)
  -0.7%	-6	17%	-6%
- CSc1nsc(SCC(=O)N2CCN(c3ccccc3)CC2)n1
  -2.5%	-4	-13%	-4%
- O=C(Cc1ccc(Cl)cc1)NNC(=O)C(=O)NC1CCCCC1
  -0.1%	/	-2%	/
- Cc1ccc(S(=O)(=O)Nc2ccsc2C#N)cc1
  -2.0%	/	2%	-4%
- COc1ccccc1-c1nn(-c2ccccc2)cc1C(=O)NC1CC1
  0.6%	/	6%	/
- Cc1cccc(OCc2nc3ccccc3c(=O)n2N)c1
  -1.0%	-9	-7%	-53%
- O=C(Nc1cccc(F)c1)Nc1ccnn1C1CCN(C(=O)c2cscn2)CC1
  -2.4%	/	24%	-20%
- O=C(c1ccncc1)N1c2ccccc2Sc2ccccc21
  2.3%	8	-6%	16%
- CN(C)c1ccc(C2/C(=C(/O)c3ccccc3)C(=O)C(=O)N2CCCC(=O)O)cc1 (stereo unspecified)
  -0.8%	2	-3%	0%
- Nc1nc(N)nc(-c2cc(C(F)(F)F)ccc2Cl)n1
  4.9%	/	-1%	/
- SC(COCc1ccccc1)CN1CCN(Cc2ccc3c(c2)OCO3)CC1 (stereo unspecified)
  -0.4%	1	17%	-4%
- OC(CNCc1cccnc1)COc1ccc2ccccc2c1 (stereo unspecified)
  2.4%	/	2%	-2%
- CC(C)C[C@@]12C(=O)N(c3cccc(F)c3)C(=O)N1[C@H](c1ccc(F)cc1)[C@@H]1C(=O)N(C3CCCCC3)C(=O)[C@@H]12
  ?	/	-1%	/
- Cc1[nH]n(-c2ccccc2)c(=O)c1C=Nc1cnc2ccccc2c1
  0.9%	4	13%	-3%
- O=C(Nc1ccc(S(=O)(=O)N2CCCC2)cc1)c1ccc(F)cc1
  -0.9%	/	-6%	/

Rewritten as comma-separated lines: 4 of the compounds above.
canonical_smiles,Rango-impB inh,GLA inh pH 4.5,Rango dissoc inh,miR-21 FLuc
CSc1nsc(SCC(=O)N2CCN(c3ccccc3)CC2)n1,-2.5%,-4,-13%,-4%
O=C(Cc1ccc(Cl)cc1)NNC(=O)C(=O)NC1CCCCC1,-0.1%,/,-2%,/
Cc1ccc(S(=O)(=O)Nc2ccsc2C#N)cc1,-2.0%,/,2%,-4%
COc1ccccc1-c1nn(-c2ccccc2)cc1C(=O)NC1CC1,0.6%,/,6%,/

Carrying on.
Second line of a record: Rango-impB inh	GLA inh pH 4.5	Rango dissoc inh	miR-21 FLuc
- BrC(=C\c1ccccc1)/C=N/Nc1nc2ccccc2[nH]1
  ?	-28	-8%	-63%
- Cc1cc(N2C(=O)C(O)=C(C(=O)c3ccco3)C2c2ccc([N+](=O)[O-])cc2)no1 (stereo unspecified)
  2.9%	/	10%	-2%
- COc1ccc(C2c3ccc4ccccc4c3Oc3ncn(CCO)c(=N)c32)cc1OC (stereo unspecified)
  1.2%	/	-4%	-12%
- Cc1cc(C)c(C)c(S(=O)(=O)NCc2cccnc2)c1C
  0.2%	4	1%	0%
- Cc1cc2oc(=O)cc(Cn3ccnc3)c2cc1C
  0.5%	-5	6%	-11%
- CC(C)(C)NC(=O)CN(C(=O)Cn1nnc(-c2ccccc2F)n1)c1cccc2c1CCCC2
  -0.6%	-7	-24%	1%
- COc1ccc(NCc2cc(=O)oc3cc(NC(C)=O)ccc23)cc1
  -3.5%	/	0%	-9%
- COc1ccc(CC(=O)NC(C)c2nnc(SCc3nc4ccccc4c(=O)[nH]3)n2C)cc1 (stereo unspecified)
  0.2%	-8	-6%	-1%
- O=S(N1CCc2ccccc21)C12CC3CC(CC(C3)C1)C2 (stereo unspecified)
  0.8%	0	-12%	-1%
- Cc1ccc(NC(=S)NCc2ccc(S(N)(=O)=O)cc2)c(C)c1
  1.4%	3	-15%	-6%
- S=c1[nH]nc(C2COc3ccccc3O2)o1 (stereo unspecified)
  -3.1%	10	8%	-4%
- Cc1c(C(=O)O)cccc1-c1ccc(/C=C2/NC(=O)N(c3ccccc3)C2=O)o1
  ?	-20	?	-33%
- COc1ccc(OC)c(Nc2cc(C)c3ccccc3n2)c1
  5.9%	/	-1%	11%
- COc1ccc(C=NNC(=O)CCCC(=O)NN=Cc2ccc(OC)c(O)c2)cc1O
  -0.6%	/	-12%	/
- O=S(=O)(c1ccc2c(c1)OCCO2)N1CCC(c2nc3ccc(Cl)cc3[nH]2)CC1
  1.7%	-6	11%	28%
- O=C(NC1CC2CCCC(C1)N2CC(=O)N1CCCc2ccccc21)C1CCCCC1 (stereo unspecified)
  4.1%	5	7%	-17%
- CCCNC(=O)c1ccccc1NC(=O)c1cccc(-n2cnnn2)c1
  0.3%	/	2%	/
- Cc1onc(-c2ccccc2Cl)c1C(=O)Nc1ccc(Br)cc1
  0.3%	/	-1%	16%
- O=C(Nc1ccc2c(c1)OCO2)C1CC(c2ccc(Cl)cc2)=NO1 (stereo unspecified)
  -0.1%	-6	1%	-6%
- CCCc1cc(-n2ccnc2C)n2c(nc3ccccc32)c1C#N
  ?	/	?	/
- CNC(=O)C1CCN(S(=O)(=O)c2c(C)noc2/C=C/c2ccccc2F)CC1
  -1.6%	/	8%	-1%
- O=C(NNC(=O)c1ccco1)c1csc(N2CCOCC2)n1
  0.0%	/	-5%	/
- NC(=O)C[n+]1cccc2ccccc21
  ?	0	?	-1%
- C=CCn1cc(/C=C2\SC(N3CCOCC3)=NC2=O)c2ccccc21
  ?	-1	16µM*	-29%
- N#CC(C#N)=C1c2cc(S(=O)(=O)NCCO)ccc2-c2ccc(S(=O)(=O)NCCO)cc21
  -1.7%	12	12%	0%
- O=C(O)C(Cc1c[nH]c2ccccc12)NS(=O)(=O)c1cccc(Cl)c1Cl (stereo unspecified)
  1.0%	/	2%	0%
- N#Cc1ccccc1COC(=O)c1cccnc1N
  -1.1%	-2	-12%	0%
- Cc1cccc(C)c1OCc1cc(C(=O)N(C)CCc2ccccn2)no1
  -0.9%	/	-13%	-10%
- C[C@@H]1CC[C@H]2C(=O)N3[C@@H](CC[C@@H](C)[C@@H]3c3ccc(Br)cc3)C(=O)N2[C@H]1c1ccc(Br)cc1
  0.2%	-16	6%	3%
- CCOCCCNC(=O)/C=C1\Sc2ccccc2N(Cc2ccccc2F)C1=O
  ?	-2	-33%	-29%
- COc1ccc(-n2c(=O)c3ccccc3n(CC(=O)NC3CCCCC3)c2=O)cc1
  6.8%	-7	-3%	-9%
- COc1ccc(C(C)=O)cc1COC(=O)c1ccc2c(c1)OCO2
  -0.6%	-4	0%	-9%
- O=Cc1c(NCc2cccc(F)c2)c2ccccc2[nH]c1=O
  -2.5%	/	-13%	-1%
- O=C(COC(=O)c1ccc(Br)o1)Nc1nc2ccccc2s1
  -3.1%	-10	-19%	-18%
- Cc1ccc(N(C(=O)CNC(=O)c2ccco2)C(C(=O)NC2CCCCC2)c2ccncc2)c(C)c1 (stereo unspecified)
  1.9%	/	-8%	-1%
- CC1(C)C(=O)OC(c2cccn2-c2ccc([N+](=O)[O-])cc2)C2(CCCCC2)C1=O (stereo unspecified)
  4.3%	3	4%	-11%
- COCCN(CCOC)C(=S)Nc1ccccc1
  1.2%	4	2%	-4%
- CN(C(=S)NCCN1CCOCC1)C(c1ccccc1)c1ccccc1
  ?	-3	5%	20%
- Cc1cc(C(=O)OCC(=O)Nc2ccccc2)c(C)o1
  -2.1%	-1	-3%	-17%
- Cc1ccc(Cl)cc1NC(=S)N1CCCCCC1
  0.8%	/	28%	-5%
- Cc1ccc2cc(CN(C(=O)c3cccnc3)C(C)C)c(=O)[nH]c2c1
  0.1%	1	?	3%
- CC1(C)Cc2c(ccc3ccccc23)C(c2cc3ccccc3oc2=O)=N1
  -2.9%	-4	-3%	-5%
- COc1cc(NC(=O)NC2Cc3ccccc3C2)cc(OC)c1
  -3.3%	/	-7%	-28%

Screening data deposited in PubChem BioAssay by National Center for Advancing Translational Sciences (NCATS).
